From PubChem BioAssay
Ecoli rRNA inh – inhibitors of bacterial rRNA selective over humanized ribosomes; E. coli WT GFP vs humanized-ribosome RFP mutants, fluorescence, 24 h; active compounds read low; DMSO median 0, no signal -100; GFP signal change (wild-type ribosome), % (concentration not given with the values); actives 1.6% (n = 350,000); AID 720706;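 active = significant combined selectivity score with lowered wild-type GFP, culture density cut under 30%, mutant RFP and density less affected; inactive = any of these conditions unmet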; also: one replicate is shown; some compounds called inactive have numbers as strong as hits
Ecoli rRNA inh OD600 – further read-out of Ecoli rRNA inh, marked with its call; OD600 change, %; measured here: OD600 growth;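 optical density of the mix in the first replicate; 0 = DMSO median and -100 = no signal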
Ecoli rRNA inh RFP – further read-out of Ecoli rRNA inh, marked with its call; RFP signal change, %; measured here: RFP humanized mutant strains;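 first replicate; 0 = DMSO median and -100 = no signal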
* hit, by the source's call; & = joins results of further samples. The list is partial (hit frequency here may not be typical).

Ecoli rRNA inh	Ecoli rRNA inh OD600	Ecoli rRNA inh RFP	SMILES
1.8	5.0	-0.1	C[C@@H]1CN([C@@H](C)CO)S(=O)(=O)c2ccc(C#CC3CCCC3)cc2O[C@H]1CN(C)C(=O)c1cccc(F)c1
0.2	13.0	-1.9	CCCNC(=O)N1[C@@H](CO)[C@@H](c2ccc(C3=CCCC3)cc2)[C@@H]1CNC(=O)CC
1.1	-14.3	6.7	Cc1ccccc1-c1ccc([C@@H]2[C@@H](CO)N3C(=O)CN(C(=O)Nc4ccccc4)C[C@H]23)cc1
4.0	5.4	-0.5	C[C@@H]1CCCCO[C@@H](CN(C)Cc2ccncc2)[C@@H](C)CN([C@H](C)CO)C(=O)c2cc(NC(=O)CCC(F)(F)F)ccc2O1
2.0	6.8	3.3	COc1ccc2c3c([nH]c2c1)[C@H](CO)NCC31CN(C(=O)c2ccccc2)C1
0.8	7.9	-1.3	O=S(=O)(c1ccccc1F)N1CCCCN2[C@H](CO)[C@H](c3ccc(-c4cncnc4)cc3)[C@H]2C1
5.5	-1.0	0.1	CCC(=O)N(C)C[C@@H]1Oc2cc(C3=CCCCC3)ccc2S(=O)(=O)N([C@@H](C)CO)C[C@@H]1C
-39.4	-31.4	18.0	COc1ccc(S(=O)(=O)N2CCCCN3[C@H](CO)[C@H](c4ccc(C#CCC(C)C)cc4)[C@H]3C2)cc1
-12.9	-16.2	8.9	COc1ccccc1S(=O)(=O)N1CC[C@@H]2[C@H]1c1cc(-c3cccc(C#N)c3)ccc1N[C@@H]2CO
-0.2	-1.7	-1.9	CO[C@H]1CN(C)C(=O)c2ccc(NC(C)=O)cc2OC[C@@H](C)N(C(=O)c2ccccc2F)C[C@H]1C
-2.9	1.9	0.2	O=C1[C@H](Cc2ccc(F)cc2)CCn2cc(nn2)COC[C@H]2CCCN12
6.3	17.9	-3.6	C[C@@H]1CN([C@@H](C)CO)C(=O)c2cc(C3=CCCC3)cnc2O[C@@H]1CN(C)C(=O)C1CC1
-2.6	-3.8	0.3	C[C@H]1CCCCO[C@@H](CN(C)C(=O)Cc2ccccc2)[C@@H](C)CN([C@@H](C)CO)C(=O)c2cc(N(C)C)ccc2O1
4.3	6.6	0.0	CN1C(=O)c2cc(NC(=O)C3CCCCC3)ccc2OC[C@H]2O[C@H](CC(=O)NC3CCCC3)CC[C@@H]21
-1.5	4.0	-0.5	CO[C@H]1CN(C)C(=O)c2cc(NC(=O)C3CCCC3)ccc2OC[C@@H](C)N(C(C)=O)C[C@@H]1C
-15.5	-19.9	-2.7	CCCNC(=O)N1[C@H](CNC(=O)c2cccc(F)c2)[C@H](c2ccccc2)[C@@H]1CO
2.5	7.3	-0.1	CC(C)NC(=O)N(C)C[C@H]1Oc2ccc(NS(=O)(=O)c3cccs3)cc2C(=O)N([C@@H](C)CO)C[C@H]1C
-10.0	-16.3	2.5	C[C@H](CO)N1C[C@H](C)[C@@H](CN(C)Cc2ccccc2)Oc2c(NC(=O)CCCCCC(=O)Nc3ccccc3N)cccc2C1=O
-0.3	-1.3	-2.9	COC(=O)C[C@@H]1CC[C@@H](NS(=O)(=O)c2ccccc2F)[C@@H](CO)O1
1.7	4.3	-0.9	C[C@@H]1CC=CC[C@@H](c2cccc(Cl)c2)NC(=O)[C@@H](Cc2ccccc2)N(C)C(=O)c2ccccc2O1 (mixture of isomers)
0.5	-1.2	-1.4	O=C1N[C@H](Cc2ccccc2)COCc2cnnn2CC[C@H]1Cc1cccc(F)c1
0.2	2.9	-0.8	COc1ccccc1C(=O)Nc1ccc2c(c1)OC[C@H](C)N(CC1CC1)C[C@@H](C)[C@H](OC)CN(C)C2=O
2.2	17.3	-1.6	CC(=O)Nc1ccc2c(c1)C(=O)N(C)C[C@H](C)[C@H](CN(C)C(C)=O)O2
-6.8	-0.5	-0.9	C[C@@H]1C(=O)N[C@@H](c2ccccc2)CC=CC[C@H](C)Oc2ccccc2C(=O)N1C (mixture of isomers)
0.0	3.3	-1.0	O=C(NC[C@H]1[C@H](c2ccccc2)[C@@H](CO)N1Cc1ccccn1)C1CCC1
-5.4	-13.6	3.2	C[C@H](CO)N1C[C@H](C)[C@H](CN(C)C(=O)Nc2ccc(F)cc2)Oc2ncc(-c3ccccc3)cc2C1=O
0.5	-1.2	-4.0	CO[C@H]1CN(C)C(=O)c2cc(NC(=O)NC(C)C)ccc2OC[C@H](C)N(Cc2cncnc2)C[C@H]1C
-1.0	-1.4	-1.1	C[C@@H]1CN(C)C(=O)c2cccc(N)c2O[C@H]1CN(C)S(C)(=O)=O
-3.8	-4.4	0.2	C[C@H]1CCCCO[C@@H](CN(C)C(=O)C2CCCCC2)[C@@H](C)CN([C@@H](C)CO)C(=O)c2cc(N(C)C)ccc2O1
-4.3	-4.6	1.5	C[C@@H]1CN([C@@H](C)CO)C(=O)Cc2cc(NC(=O)CCCCCC(=O)Nc3ccccc3N)ccc2O[C@@H]1CN(C)S(=O)(=O)c1ccc(Cl)cc1
2.7	14.5	-1.3	C[C@@H]1CCCCO[C@@H](CN(C)C)[C@@H](C)CN([C@H](C)CO)C(=O)c2cc(N(C)C)ccc2O1
0.2	-1.2	-1.7	COc1ccc([C@@H]2C/C=C\C[C@H](c3ccc4c(c3)OCO4)NC(=O)[C@H](c3ccccc3)CC(=O)N2)c(OC)c1
-4.2	-6.4	8.4	CO[C@@H]1CN(C)C(=O)c2ccc(NC(=O)Nc3cccc(F)c3)cc2OC[C@H](C)N(C(=O)C2CC2)C[C@@H]1C
-0.2	3.2	-0.4	C[C@@H]1CCCCO[C@H](CN(C)Cc2ccncc2)[C@@H](C)CN([C@@H](C)CO)C(=O)c2cc(NC(=O)C3CCCCC3)ccc2O1
-5.7	-18.8	2.3	C[C@H]1CN([C@@H](C)CO)S(=O)(=O)c2ccc(-c3ccccc3)cc2O[C@H]1CN(C)C(=O)C1CC1
2.6	2.6	-0.8	O=C(C[C@H]1C=C[C@H](NC(=O)c2cccnc2)[C@H](CO)O1)NCCN1CCCCC1

Three compounds out of the list, ordered by formula weight, largest number first.
Ecoli rRNA inh	Ecoli rRNA inh OD600	Ecoli rRNA inh RFP	SMILES
-0.2	3.2	-0.4	C[C@@H]1CCCCO[C@H](CN(C)Cc2ccncc2)[C@@H](C)CN([C@@H](C)CO)C(=O)c2cc(NC(=O)C3CCCCC3)ccc2O1
-4.2	-6.4	8.4	CO[C@@H]1CN(C)C(=O)c2ccc(NC(=O)Nc3cccc(F)c3)cc2OC[C@H](C)N(C(=O)C2CC2)C[C@@H]1C
0.5	-1.2	-4.0	CO[C@H]1CN(C)C(=O)c2cc(NC(=O)NC(C)C)ccc2OC[C@H](C)N(Cc2cncnc2)C[C@H]1C

Continued.
Ecoli rRNA inh	Ecoli rRNA inh OD600	Ecoli rRNA inh RFP	SMILES
-5.6	1.9	-1.6	C[C@H]1CCCCO[C@H](CN(C)C(=O)Cc2ccccc2)[C@@H](C)CN([C@@H](C)CO)C(=O)c2cc(N(C)C)ccc2O1
-0.6	-19.1	1.6	O=C1C[C@H](c2ccccc2)C(=O)N[C@@H](c2ccccc2)C/C=C\C[C@@H](c2ccccc2)N1
-0.2	3.6	-4.0	COc1ccccc1C#Cc1cnc2c(c1)C(=O)N([C@H](C)CO)C[C@@H](C)[C@@H](CN(C)S(=O)(=O)c1cn(C)cn1)O2
4.6	6.6	0.9	CCC(=O)N(C)C[C@H]1Oc2cc(C3=CCCCC3)ccc2S(=O)(=O)N([C@@H](C)CO)C[C@H]1C
-3.3	-16.2	8.9	C[C@@H]1CN([C@H](C)CO)S(=O)(=O)c2ccc(C#CC3CC3)cc2O[C@H]1CN(C)Cc1cncnc1
1.3	-1.7	0.1	COc1ccc([C@@H]2C/C=C\C[C@@H](c3ccc4c(c3)OCO4)NC(=O)[C@H](c3ccccc3)CC(=O)N2)c(OC)c1
2.0	6.3	-1.6	CNC[C@@H]1Oc2c(NC(=O)NC(C)C)cccc2C(=O)N(C)C[C@@H]1C
-0.2	1.5	-1.7	C[C@@H]1CN([C@@H](C)CO)C(=O)c2ccccc2-c2ccccc2CO[C@@H]1CN(C)Cc1cccc(C(=O)O)c1
1.7	7.7	0.9	C[C@@H]1CCCCO[C@H](CN(C)Cc2ccc(C(=O)O)cc2)[C@@H](C)CN([C@@H](C)CO)C(=O)c2cc(N(C)C)ccc2O1
2.0	10.8	-1.2	CC(C)NC(=O)N(C)C[C@@H]1OCCCC[C@@H](C)Oc2ccc(NC(=O)C3CCCCC3)cc2C(=O)N([C@@H](C)CO)C[C@H]1C
1.6	-8.7	1.7	C[C@H]1CN([C@@H](C)CO)C(=O)c2cccc(NC(=O)C3CCCCC3)c2O[C@H]1CN(C)S(=O)(=O)c1cn(C)cn1
-1.2	7.9	2.0	C[C@@H]1CN([C@@H](C)CO)S(=O)(=O)c2ccc(C#Cc3cccc(F)c3)cc2O[C@@H]1CN(C)C(=O)NC1CCCCC1
-0.8	2.4	-0.1	C[C@@H]1CN([C@H](C)CO)C(=O)Cc2cc(NC(=O)CCCCCC(=O)Nc3ccccc3N)ccc2O[C@H]1CN(C)S(=O)(=O)c1ccc(Cl)cc1
-16.0	-41.9	2.5	C[C@@H]1CN([C@H](C)CO)S(=O)(=O)c2ccc(-c3ccc(F)cc3)cc2O[C@H]1CN(C)C(=O)C1CCC1
4.3	-1.2	0.8	CCc1cnc(N2[C@H](C#N)[C@@H](c3ccc(C#CCC4CCCC4)cc3)[C@@H]2CO)s1
2.3&1.9	7.1&-1.5	1.0&-2.7	CC(=O)N1C[C@@H]2C(c3ccc(Br)cc3)[C@H](C1)N2C(C)=O (stereo partly specified)
-4.8	-17.3	8.1	CC(=O)NC[C@H]1[C@H](c2ccc(C3=CCCCC3)cc2)[C@@H](CO)N1C(=O)NC(C)C
-3.6	4.6	-1.4	O=S(=O)(c1cccc(F)c1)N1CC[C@H]2[C@H](CO)Nc3ccc(C#Cc4cccc(F)c4)cc3[C@H]21
-3.0	3.2	3.4	N#C[C@@H]1[C@H](c2ccccc2-c2cccc(F)c2)[C@@H](CO)N1C(=O)NC1CCCCC1
-3.0	-3.7	-0.3	C[C@H]1COCn2nncc2CC[C@@H](Cc2ccc(-c3ccccc3)cc2)C(=O)N1
3.4	5.0	-1.7	CO[C@H]1CN(C)C(=O)c2ccc(NC(=O)c3cnccn3)cc2OC[C@@H](C)N(C)C[C@@H]1C
-17.4	-63.4	4.8	O=C(c1cccc(F)c1)N1CC(=O)N2[C@H](C1)[C@@H](c1ccc(-c3ccccc3)cc1)[C@@H]2CO
3.9	7.1	-0.4	C[C@@H]1CCCCO[C@H](CN(C)C)[C@H](C)CN([C@H](C)CO)C(=O)c2cc(NC(=O)NC3CCCCC3)ccc2O1
-0.9	0.8	-1.9	CO[C@H]1CN(C)C(=O)c2ccc(NC(C)=O)cc2OC[C@@H](C)N(C(=O)c2cnccn2)C[C@H]1C

5 compounds drawn at random from those above:
Ecoli rRNA inh	Ecoli rRNA inh OD600	Ecoli rRNA inh RFP	SMILES
2.0	10.8	-1.2	CC(C)NC(=O)N(C)C[C@@H]1OCCCC[C@@H](C)Oc2ccc(NC(=O)C3CCCCC3)cc2C(=O)N([C@@H](C)CO)C[C@H]1C
0.0	3.3	-1.0	O=C(NC[C@H]1[C@H](c2ccccc2)[C@@H](CO)N1Cc1ccccn1)C1CCC1
-16.0	-41.9	2.5	C[C@@H]1CN([C@H](C)CO)S(=O)(=O)c2ccc(-c3ccc(F)cc3)cc2O[C@H]1CN(C)C(=O)C1CCC1
1.6	-8.7	1.7	C[C@H]1CN([C@@H](C)CO)C(=O)c2cccc(NC(=O)C3CCCCC3)c2O[C@H]1CN(C)S(=O)(=O)c1cn(C)cn1
-1.0	-1.4	-1.1	C[C@@H]1CN(C)C(=O)c2cccc(N)c2O[C@H]1CN(C)S(C)(=O)=O

Continuation:
Ecoli rRNA inh	Ecoli rRNA inh OD600	Ecoli rRNA inh RFP	SMILES
-1.0	1.5	-3.8	COc1ccc(S(=O)(=O)N2CC3(CN(C(=O)c4cccnc4)[C@@H](CO)c4c3c3ccc(OC)cc3n4C)C2)cc1
3.1	1.2	2.5	C[C@@H]1CN([C@H](C)CO)C(=O)Cc2cc(NC(=O)Nc3ccccc3)ccc2O[C@@H]1CN(C)Cc1ccc(C(=O)Nc2ccccc2N)cc1
-21.3*	1.7*	2.8*	C/C=C/c1ccc2c(c1)[C@@H]1[C@@H](CCN1S(=O)(=O)c1ccccc1OC)[C@H](CO)N2C
-1.5	8.3	-0.4	O=C(c1ccc(F)cc1)N1CC[C@@H]2[C@@H](CO)Nc3ccc(C#Cc4ccccc4F)cc3[C@@H]21
-0.3	-9.4	-6.0	C[C@H](CO)N1C[C@H](C)[C@@H](CN(C)Cc2ccc(-c3ccccc3)cc2)OCc2cn(nn2)CCCC1=O
-0.8	-1.6	0.0	Cc1ccc(OC(=O)N(C)C[C@@H]2OCc3cn(nn3)CCCC(=O)N([C@H](C)CO)C[C@@H]2C)cc1
2.2	8.1	-2.8	C[C@@H]1CN([C@@H](C)CO)C(=O)Cc2cc(NC(=O)CCN3CCOCC3)ccc2O[C@@H]1CN(C)C(=O)NC1CCCCC1
0.4	6.6	-0.6	O=C(C1CC1)N1C[C@@H]2[C@H](c3ccccc31)[C@@H](CO)N2C(=O)c1ccccc1F
-1.6	-6.4	-1.4	COc1ccc(CN2C[C@H](C)[C@H](OC)CN(C)C(=O)c3cc(NC(=O)C4CC4)ccc3OC[C@@H]2C)cc1
-0.7	-3.3	-1.7	C[C@H](CO)N1C[C@H](C)[C@H](CN(C)C(=O)Nc2ccc(F)cc2)Oc2ccc(NS(=O)(=O)c3cn(C)cn3)cc2C1=O
4.3	15.2	2.3	CN(C)CC#Cc1ccc([C@H]2[C@@H](CO)N3CCCCN(C(=O)Nc4cc(F)ccc4F)C[C@@H]23)cc1
-0.9	2.2	0.9	CCCNC(=O)N1CC2(CN(C(=O)c3cccnc3)C2)c2c([nH]c3cc(OC)ccc23)[C@H]1CO
